Vaccinia Venus: qHTS for Stage-Specific Inhibitors of Vaccinia Orthopoxvirus: Venus Reporter Primary qHTS | Vaccinia virus Venus reporter expression, fluorescence | Potency, µM (titrated, usually from 36.5 µM), without a hit: top-dose activity change, negative = inhibition, usual class: inhibitors | 0.46% of 330,000 active; active means well fitted inhibition curve with a large enough effect; inconclusive means small, poorly fitted or top-dose-only effect; inactive means no such curve, though single readings can be large or run the other way; tested in A549 cells; further: nearly all actives have a fitted effect of over 30% in size; inactives centre near -10
Vaccinia mCherry: qHTS for Stage-Specific Inhibitors of Vaccinia Orthopoxvirus: mCherry Reporter Primary qHTS; Potency, µM (top dose mostly 36.5 µM), for inactives: at the highest dose activity change, negative = inhibition, most hits filed as inhibitors; Vaccinia virus mCherry reporter infection, fluorescence; about a quarter of the inactives have no number; 0.63% of 310,000 active; active = well fitted inhibition curve with a large enough effect; inconclusive = small, poorly fitted or top-dose-only effect; inactive = no such curve, though single readings can be large or run the other way; tested in A549 cells; further: nearly all actives have a fitted effect of over 35% in size; inactives centre near -10
An asterisk follows results filed as active; i = inactive; ? = inconclusive; . = no result given; & = joins results of further samples; [ ] = remark or other dose. On the % scale 0 is the no-effect control and ±100 the full control effect; potency means the concentration at half of the fitted maximal effect. Compounds as they come. Share with any hit: about 0.82%.

Second line of a record – Vaccinia mCherry, Vaccinia Venus
Fc1cccc(CN2CCN(Cc3nc(-c4cnccn4)no3)CC2)c1
    -5%, -9%
O=C(Nc1ccc(Br)cc1)c1cc(-c2cccs2)nc2ccccc12
    -15%, -1%
Cc1cc(C)c(NC(=O)COC(=O)Cn2nc(-c3ccccc3)oc2=O)c(C)c1
    -13%, -6%
O=C(Nc1cc(N2CCCCC2)ncn1)c1ccccc1
    i, -6%
O=S(=O)(c1ccc(Cl)cc1)N1CCC(c2ccncc2)CC1
    i, -16%
COCCCN1CC(=O)N2C(c3ccc(C)cc3)c3[nH]c4ccccc4c3C[C@H]2C1=O (stereo partly drawn)
    0%, -20%
CS(=O)(=O)c1ccc(C(=O)Nc2cc(S(C)(=O)=O)ccc2Cl)cc1
    -19%, -12%
CC(NC(=O)c1ccc(Cl)cc1)c1nnc(SCc2ccc([N+](=O)[O-])cc2)n1C (stereo not drawn)
    -12%, -4%
COc1cccc(CN(C)CC(=O)Nc2cccc(S(=O)(=O)N(C)c3ccccc3)c2)c1OC
    -25%, -14%
C/C=C/Cn1c(Br)nc2c1c(=O)n(C)c(=O)n2C
    i, -11%
CC(C)Oc1ccc(NC(=O)c2cc3ccccc3o2)cc1
    ?, ?
COc1ccc(C(=O)/C=C/N2CCCCC2)cc1OC
    i, -14%
O=[N+]([O-])c1ccc2nc(CN3CCCCC3)[nH]c2c1
    i, -19%
Cc1ccc(NC(=O)CCn2c(=O)[nH]c3ccsc3c2=O)cc1
    -5%, -5%
CCOc1ccc(C(=O)c2cn(CC(=O)Nc3ccc4c(c3)OCO4)c3ccc(OC)cc3c2=O)cc1
    1%, -4%
O=c1[nH]c(NCCO)c(N=Cc2ccccc2)c(=O)[nH]1
    -14%, -7%
CCOC(=O)c1ccc(NC(=O)CCc2nc(-c3ccc(Cl)cc3)no2)cc1
    -22%, -26%
CCc1cccc(C)c1NC(=O)CN1C(=O)c2c(c3ccccc3n2C)C1c1ccc(OC)cc1 (stereo not drawn)
    -13%, -10%
CCOC(=O)COc1ccc2c(c1)c(C(C)=O)c(C)n2-c1ccccc1
    -9%, -4%
Cc1ccc(-c2c(C(=O)N/N=C/C3CCCCC3)nnn2-c2nonc2N)cc1
    -26%, -10%
C[C@@H]1CN([C@@H](C)CO)C(=O)CCCn2nncc2CO[C@@H]1CN(C)C(=O)Nc1ccnc(N2CCOCC2)c1
    -2%, -6%
CN(C)S(=O)(=O)c1ccc(C(=O)NCc2ccccn2)cc1
    -7%, 21%
O=C(O)Cc1coc2cc3c(cc12)CCC3
    -1%, -4%
CCc1sc(Nc2cccc(Cl)c2)nc1-c1cc2cccc(OC)c2oc1=O
    -14%, -18%
CC(C)(C)OC(=O)N1CCC[C@H]1C(=O)O
    i, -11%
O=C(Nc1ccc2nc3ccccc3nc2c1)c1ccccc1
    10µM*, ?
O=C(NNC(=O)c1ccc(SCC2CCCO2)c([N+](=O)[O-])c1)c1ccc(Cl)c([N+](=O)[O-])c1 (stereo not drawn)
    i, -8%
CCCCCN(C(=O)CCC(=O)OC(C)C(=O)Nc1ccccc1C)c1c(N)n(CCCC)c(=O)[nH]c1=O (stereo not drawn)
    -9%, -3%
O=C(COC(=O)c1ccc(Cl)c([N+](=O)[O-])c1)Nc1ccccc1OC(F)F
    i, -6%
N#Cc1ccccc1OCCN1C(=O)c2ccccc2C1=O
    ., -8%
O=C(NCc1ccc(Cl)cc1)N1CCN(S(=O)(=O)c2ccccc2)CC1
    -7%, 10%
Cn1c(N)c(C(=O)CSc2n[nH]c(-c3ccccc3)n2)c(=O)n(C)c1=O
    -10%, 0%
CCOC(=O)Nc1cc2c(cc1C(C)=O)OCO2
    -14%, -3%
CCN(CC)S(=O)(=O)c1cc(C(=O)OCC(=O)c2ccc3c(c2)NC(=O)CO3)ccc1F
    ., -15%
CSc1cccc(NC(=O)C2CCN(S(=O)(=O)c3ccc4c(c3)CCCN4C(=O)C3CCC3)CC2)c1
    -14%, -18%
COc1ccc(-c2nc3ccccc3o2)cc1NC(=O)c1cc(Br)ccc1OC
    -8%, -3%
COc1ccc(C(=O)NCCS(=O)(=O)NCc2ccc3c(c2)OCO3)cc1
    -14%, -2%
CN(C)c1ccc(-c2nc(-c3ccccn3)no2)cc1[N+](=O)[O-]
    -13%, -12%
COc1cc(C(=O)Oc2cc(N)n(S(=O)(=O)c3ccccc3)n2)cc(OC)c1OC
    ?, -17%
COc1ccc(N(C(=O)c2ccncc2)S(=O)(=O)c2cccs2)cc1
    -2%, -9%
O=C(CCl)Nc1ncc(S(=O)(=O)c2ccc([N+](=O)[O-])cc2)s1
    ?, -2%
C=CCSc1nc(NC)c2sccc2n1
    ., -30%
Cc1cccc(C)c1-n1nnnc1C(c1ccccc1)N1CCN(C/C=C/c2ccccc2)CC1 (stereo not drawn)
    5%, -6%
COc1ccccc1OCC(=O)OCC(=O)NC1CCCCC1
    -5%, 0%
COc1cccc(OC)c1C(=O)N1CCN(Cc2ccccc2F)CC1
    i, 4%
COc1ccc(CNC(=O)CSc2nc(-c3ccc(OC)c(OC)c3)cc(C(F)(F)F)n2)cc1
    -2%, -7%
CC(C)c1ccc(N2C(=O)CSC23C(=O)N(Cc2ccccc2F)c2ccccc23)cc1 (stereo not drawn)
    -23%, -2%
CC(=O)C1=C(O)C(=O)N(c2ccc(O)cc2)C1c1ccc([N+](=O)[O-])cc1 (stereo not drawn)
    -3%, -10%
O=Nc1c(O)n(Cc2ccc(Cl)cc2Cl)c2ccccc12
    -24%, ?
Cc1ccc(OCCOC(=O)c2cc(S(=O)(=O)N3CCCCC3)ccc2N2CCOCC2)cc1
    -23%, -30%
CSC(=NC#N)N1CCN(c2ccc([N+](=O)[O-])cc2)CC1
    -8%, -19%
CN1c2ccccc2C(O)=C(C(=S)Nc2ccc(F)c(Cl)c2)S1(=O)=O
    ?, -26%
CC(C)CN(C(=O)c1ccc(S(=O)(=O)N2CCCC2)cc1)C1CCS(=O)(=O)C1 (stereo not drawn)
    -10%, -15%
O=C(c1cc(COc2ccc(F)cc2Cl)on1)N1CCCC(c2ccccc2)C1 (stereo not drawn)
    -6%, -11%
CCCOP(=O)(OCCC)c1nc(-c2ccccc2)oc1NCc1ccccc1
    ?, ?
CCc1ccc(NC(=S)N2CCCC(C(F)(F)F)C2)cc1 (stereo not drawn)
    i, -23%
O=C1NC[C@H](Cc2ccccc2)N(C[C@@H]2CCCN2C[C@H](Cc2ccc(O)cc2)N2C[C@H](Cc3ccc(O)cc3)N(CC3CCCCC3)C(=O)C2=O)C1=O
    -3%, 1%
O=C(C[C@H]1C(=O)N(CCc2ccccc2)C[C@@H]1Cc1ccccc1)Nc1ccccc1
    1%&-9%, -17%&-15%
O=C(c1ccc2c(c1)N(Cc1ccc(Cl)cc1)C(=O)c1ccccc1S2(=O)=O)N1CCCCCC1
    -20%, -17%
C(#CC1CCCC1)c1ccc2c(c1)COc1c3ccccc3nn1-2
    ?, -13%

19 entries from above, with tabs:
canonical_smiles	Vaccinia mCherry	Vaccinia Venus
C=CCSc1nc(NC)c2sccc2n1	.	-30%
Cc1cccc(C)c1-n1nnnc1C(c1ccccc1)N1CCN(C/C=C/c2ccccc2)CC1 (stereo not drawn)	5%	-6%
COc1ccccc1OCC(=O)OCC(=O)NC1CCCCC1	-5%	0%
COc1cccc(OC)c1C(=O)N1CCN(Cc2ccccc2F)CC1	i	4%
COc1ccc(CNC(=O)CSc2nc(-c3ccc(OC)c(OC)c3)cc(C(F)(F)F)n2)cc1	-2%	-7%
CC(C)c1ccc(N2C(=O)CSC23C(=O)N(Cc2ccccc2F)c2ccccc23)cc1 (stereo not drawn)	-23%	-2%
CC(=O)C1=C(O)C(=O)N(c2ccc(O)cc2)C1c1ccc([N+](=O)[O-])cc1 (stereo not drawn)	-3%	-10%
O=Nc1c(O)n(Cc2ccc(Cl)cc2Cl)c2ccccc12	-24%	?
Cc1ccc(OCCOC(=O)c2cc(S(=O)(=O)N3CCCCC3)ccc2N2CCOCC2)cc1	-23%	-30%
CSC(=NC#N)N1CCN(c2ccc([N+](=O)[O-])cc2)CC1	-8%	-19%
CN1c2ccccc2C(O)=C(C(=S)Nc2ccc(F)c(Cl)c2)S1(=O)=O	?	-26%
CC(C)CN(C(=O)c1ccc(S(=O)(=O)N2CCCC2)cc1)C1CCS(=O)(=O)C1 (stereo not drawn)	-10%	-15%
O=C(c1cc(COc2ccc(F)cc2Cl)on1)N1CCCC(c2ccccc2)C1 (stereo not drawn)	-6%	-11%
CCCOP(=O)(OCCC)c1nc(-c2ccccc2)oc1NCc1ccccc1	?	?
CCc1ccc(NC(=S)N2CCCC(C(F)(F)F)C2)cc1 (stereo not drawn)	i	-23%
O=C1NC[C@H](Cc2ccccc2)N(C[C@@H]2CCCN2C[C@H](Cc2ccc(O)cc2)N2C[C@H](Cc3ccc(O)cc3)N(CC3CCCCC3)C(=O)C2=O)C1=O	-3%	1%
O=C(C[C@H]1C(=O)N(CCc2ccccc2)C[C@@H]1Cc1ccccc1)Nc1ccccc1	1%&-9%	-17%&-15%
O=C(c1ccc2c(c1)N(Cc1ccc(Cl)cc1)C(=O)c1ccccc1S2(=O)=O)N1CCCCCC1	-20%	-17%
C(#CC1CCCC1)c1ccc2c(c1)COc1c3ccccc3nn1-2	?	-13%

Carrying on:
Second line of a record – Vaccinia mCherry, Vaccinia Venus
CC(NCC(=O)Nc1cc(S(=O)(=O)N2CCOCC2)ccc1Cl)c1ccc(Cl)cc1Cl (stereo not drawn)
    ?, ?
O=C(Nc1ccc(N2CCCCC2)cc1)c1ccc(F)cc1F
    -11%, -9%
OC(CN1C2=NCCN2c2ccccc21)c1ccccc1 (stereo not drawn)
    -21%, -9%
CC(=O)c1ccc(NC(=O)C2CCN(S(=O)(=O)c3ccc4c(c3)N(C(C)=O)CCO4)CC2)cc1
    -21%, -8%
Ic1ccc(N2CCN(Cc3c[nH]c4ncccc34)CC2)cc1
    -15%&-10%, ?
COc1ccc(C(=O)OCC(=O)NCCN2C(=O)CSC2=O)cc1[N+](=O)[O-]
    -11%, -15%
Cc1ccc(C)c(NC(=O)c2cc(-c3cc(C)ccc3O)n[nH]2)c1
    ?, ?
CCOc1cc(/C=C\[N+](=O)[O-])ccc1OCC(=O)N1CCOCC1
    i, -5%
C/C(CC(=O)Nc1ccc(C)c(Cl)c1)=N\NC(=O)Cc1ccccc1
    -10%, -13%
O=C(CN1CC(=O)Oc2ccccc21)NCc1ccco1
    -13%, -5%
CCOc1ccc(NC(=O)C2CCCN(S(=O)(=O)c3cccc4nonc34)C2)cc1 (stereo not drawn)
    7%, 12%
CC1(C)Cc2c(sc3c2c(N)nc(=S)n3Cc2ccc(Br)cc2)CO1
    i, -5%
O=C(c1cc2nc(-c3ccco3)cc(C(F)(F)F)n2n1)N1CCN(c2ccc(F)cc2)CC1
    -17%, -19%
COc1ccc(NS(=O)(=O)c2ccc(NC(=S)NC(=O)C(C)C)cc2)cc1
    -2%, -13%
Cc1ccc(C(C#N)c2ccc3c(C(F)(F)F)cc(C(F)(F)F)nc3n2)cc1 (stereo not drawn)
    ?, -24%
O=C(Nc1ccc(C(=O)NCCCN2CCN(c3ccccc3)CC2)cc1)C1=CSCCO1
    i[7.34 µM], -15%[7.34 µM]
Cc1[nH]c2ccccc2c1C(=O)CSc1nc2ccccc2[nH]1
    -4%, -8%
CC(C)c1ccc(-c2noc(SCC(=O)N3CCN(c4ccc(F)cc4)CC3)n2)cc1
    i, -9%
Cc1nnc(OCC(=O)NCCC2=CCCCC2)c2ccccc12
    -15%, -3%
COC(=O)c1cc(CNC(=O)c2ccncc2)cc(NC(=O)c2ccccc2Cl)c1
    -6%, -9%
CCCCCNC(=O)CCCCCn1c(=O)[nH]c2ccsc2c1=O
    -3%, 3%
Cc1cccc(C(=O)C(O)(c2ccccc2)C2CCCCC2=O)c1 (stereo not drawn)
    0%, -10%
COc1ccc(COC(=O)N/N=C(\C)CC(=O)Nc2ccc(Cl)cn2)cc1
    2%[7.34 µM], 0%[7.34 µM]
N#CCSc1ccc(S(=O)(=O)N2CCOCC2)cn1
    i, -7%
COC(=O)c1cc(NC(=O)N2c3ccccc3Sc3ccccc32)cc(C(=O)OC)c1
    -11%, -14%
CCC(=O)Nc1ccc(Cl)c(-c2nc3ccccc3[nH]2)c1
    0%, -23%

Source: PubChem
